StopGo reporter – lowers the luciferase signal of an FMDV 2A StopGo reporter. human cells with a luciferase reporter of 2A StopGo recoding; control for the full effect not named in the record. Potency, µM (series often up to 57.9 µM), without a hit: top-dose signal change, negative = less light. 410,000 compounds, 1.2% hits; active = well fitted falling curve with a large enough effect; inconclusive = small, poorly fitted or top-dose-only effect; inactive = no such curve, though single readings can be large or run the other way; tested in HEK293T cells; further: on the % scale 0 is the no-effect control and ±100 the full control effect; nearly all actives have a fitted effect of over 45% in size; luciferase light after 4 h
LASV entry inh – Lassa virus entry inhibition. Potency, µM (titrated, usually from 37.9 µM), for inactives: top-dose activity change, negative = inhibition, hits mostly inhibitors. Lassa virus pseudotype entry inhibition, cell reporter; control for the full effect not named in the record. 300,000 compounds, 1.2% hits. AID 540256; active means well fitted inhibition curve with a large enough effect; inconclusive means small, poorly fitted or top-dose-only effect, or effect the other way; inactive means flat fitted curve, though single readings scatter; tested in HEK293 cells; further: on the % scale 0 is the no-effect control and ±100 the full control effect; nearly all actives have a fitted effect of over 50% in size; luciferase read-out
SARS PLP yeast – SARS-CoV PLP inhibition in yeast; S. cerevisiae expressing SARS-CoV PLpro, growth rescue; control for the full effect not named in the record; Potency, µM (doses to about 32.9 µM), for the others: top-dose activity, positive = growth rescue; 330,000 compounds, 0.19% hits; AID 485353; further: 0% is about no effect; nearly all actives have a fitted effect of over 55% in size; growth read by luminescence after 48 h
Cruzain inh noDet – cruzain (T. cruzi) inhibition without detergent; purified cruzain, Z-FR-AMC fluorescence, no detergent; Potency, µM, for inactives: max response, negative = inhibition, most hits filed as inhibitors; 200,000 compounds, 2.3% hits; AID 1476; active means well fitted curve in the direction sought with a large enough effect; inconclusive means small, poorly fitted or top-dose-only effect, or another doubt; inactive means no such curve, though single readings can be large; an effect the other way counts as inactive or inconclusive;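 further: plate controls were enzyme without inhibitor for no effect and buffer without enzyme for full effect; nearly all actives have a fitted effect of over 40% in size; top concentration of the series not given in the record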
Target sequence (P25779 123-467 limits assumed): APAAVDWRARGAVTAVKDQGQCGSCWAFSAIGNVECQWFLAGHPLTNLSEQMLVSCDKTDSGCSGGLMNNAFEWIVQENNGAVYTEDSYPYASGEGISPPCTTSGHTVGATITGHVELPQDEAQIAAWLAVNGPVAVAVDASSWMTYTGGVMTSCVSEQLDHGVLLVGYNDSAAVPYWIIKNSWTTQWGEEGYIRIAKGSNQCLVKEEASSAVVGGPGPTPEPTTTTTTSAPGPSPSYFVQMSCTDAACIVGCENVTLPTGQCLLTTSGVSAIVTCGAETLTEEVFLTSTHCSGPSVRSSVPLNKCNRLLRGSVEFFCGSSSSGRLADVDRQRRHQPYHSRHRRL
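Purified cruzain at 1.5 nM, pre-incubated 15 min with compound at room temperature in 100 mM sodium acetate pH 5.5, 5 mM DTT, 0.00005% Triton X-100. Reaction started with 2 uM Z-FR-AMC; AMC fluorescence increase over 60 s gives rate.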
RE007 growth inh – less growth of the S. pombe RE007 Vpr strain; S. pombe RE007 Vpr strain, BacTiter-Glo ATP luminescence, 24 h; control for the full effect not named in the record; Potency, µM (titrated, usually from 92.2 µM), without a hit: at the highest dose activity change, negative = less growth; 360,000 compounds, 0.21% hits; AID 651644; active = well fitted falling curve with a large enough effect; inconclusive = small, poorly fitted or top-dose-only effect; inactive = no such curve, though single readings can be large or run the other way;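 further: on the % scale 0 is the no-effect control and ±100 the full control effect; nearly all actives have a fitted effect of over 50% in size; the assay follows cell death caused by Vpr and the record does not say whether a fall means rescue or toxicity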
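Fission yeast strain RE007, carrying one chromosomally integrated HIV-1 vpr copy, was seeded at OD 0.01 in PMG+AL medium with 23 nL pinned compound. After 24 h at 30 °C and 99% humidity, viability was read by BacTiter-Glo luminescence.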
Marburg entry inh – blocks Marburg virus binding to or entry into cells. Marburg virus pseudotyped entry inhibition, cell reporter; control for the full effect not named in the record; about a third of the inactives were read at about 46 µM. Potency, µM (doses to about 37.8 µM), for inactives: top-dose activity change, negative = inhibition, hits mostly inhibitors. 300,000 compounds, 1.8% hits. AID 540276; active = well fitted inhibition curve with a large enough effect; inconclusive = small, poorly fitted or top-dose-only effect, or effect the other way; inactive = flat fitted curve, though single readings scatter; tested in HEK293 cells; about a fifth of its hits are not listed in these tables; further: on the % scale 0 is the no-effect control and ±100 the full control effect; luciferase read-out
NS1 inh – influenza NS1 inhibition; S. cerevisiae slowed by influenza A NS1, growth recovery by OD600; Potency, µM (top dose mostly 46.1 µM), for inactives: at the top dose activity, positive = more growth; 270,000 compounds, 0.4% hits; further: actives are rising curves; nearly all actives have a fitted effect of over 50% in size
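Compounds were scored for reversing the slow growth caused by influenza A NS1 in S. cerevisiae, measured by optical density at 600 nm. Assay medium contained 2% galactose at pH 6.0; NS1-free yeast of the same strain were the positive control.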
Cruzain inh Det – blocks cruzain activity in presence of Triton detergent | P25779 | 200,000 compounds, 0.43% hits | Potency, µM, for the others: max response, negative = inhibition, actives largely listed as inhibitors | purified cruzain, Z-FR-AMC fluorescence, 0.01% Triton; active means well fitted curve in the direction sought with a large enough effect; inconclusive means small, poorly fitted or top-dose-only effect, or another doubt; inactive means no such curve, though single readings can be large; an effect the other way counts as inactive or inconclusive;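 further: plate controls were neutral wells for no effect and buffer without enzyme for full effect; nearly all actives have a fitted effect of over 40% in size; top concentration of the series not given in the record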
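Steps: dispense cruzain (1.5 nM final) in acetate buffer pH 5.5 with DTT and 0.01% Triton X-100; pin-transfer compounds; incubate 15 min RT; add Z-FR-AMC (2 uM final); read fluorescence every 30 s, using the 60 s intensity change.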
An asterisk follows results filed as active; ? = inconclusive; . = no result given; & = joins results of further samples; [ ] = dose if it differs, or a comment. Unless noted, the call rests on the fitted dose curve; in most records, active means well fitted rising curve with a large enough effect; inconclusive means small, poorly fitted or top-dose-only effect; inactive means no such curve, though single readings can be large or run the other way. Potency means the concentration at half of the fitted maximal effect.

SMILES	StopGo reporter	LASV entry inh	SARS PLP yeast	Cruzain inh noDet	RE007 growth inh	Marburg entry inh	NS1 inh	Cruzain inh Det
O=C(CSc1n[nH]c(-c2ccccn2)n1)Nc1ccc(Cl)cc1	-16%	?	-3%	.	9%	?	-26%	.
O=C(CN1CCN(C(=O)C2CCCO2)CC1)Nc1cc(C(F)(F)F)ccc1Cl (stereo unspecified)	?	-20%	2%	.	22%	0%	-4%	.
CCOC(=O)c1cc(S(=O)(=O)NC2CCCCC2)cn1C	26%	.	0%	.	-2%	.	9%	.
Cc1noc(NS(=O)(=O)c2ccc(NC(=O)c3ccccc3NS(=O)(=O)c3ccc(F)cc3)cc2)c1C	13%	0%[46.1 µM]	1%	.	2%	2%[46.1 µM]	.	.
CC(C)CNC(=O)c1cccc(NC(=O)c2ccc(NC(=O)c3ccco3)cc2)c1	.	?	-2%	?	-9%	19%	?	6.2%
CCOC(=O)c1c(S(=O)(=O)N2CCC(C(=O)Nc3ccc(OCC)cc3)CC2)c(C)n(C)c1C	-4%	2%[46.1 µM]	.	-9%	.	.	.	5.1%
COc1cccc(-n2nnnc2SCC(=O)c2ccc(NC(C)=O)cc2)c1	-14%	?	-8%	2%	-5%	12%	?	-4.3%
Cc1ccc(C)c(S(=O)(=O)N2CCCOC2CNC(=O)C(=O)NCCCN2CCOCC2)c1 (stereo unspecified)	-2%	17%	3%	.	4%	-8%	1%	.
Cc1cc(C(=O)COC(=O)c2nccnc2N)c(C)n1C	-15%	?	5%	.	4%	?	.	.
CC(=O)Nc1ccc(Cl)c(C(N)=O)c1	6%	-28%[14.3 µM]	3%	5%	-3%	-1%	10%	-1.2%
CCOc1cc(C(=O)OCC(=O)Nc2cccc(C)c2)ccc1OCC(=O)N1CCOCC1	-15%	.	-12%	3%	-8%	-6%	-2%	-0.7%
O=C1CCCCC1C(=O)c1cn(-c2ccc(Cl)c(Cl)c2)nn1 (stereo unspecified)	65%[activator]	?	-1%	.	-5%	5%[46.1 µM]	.	.
O=C(NCC1CCCO1)c1cn(-c2ccccc2)nc1-c1ccc(F)cc1 (stereo unspecified)	0%	.	12%	.	-9%	.	-4%	.
C[C@H]1CC[C@H]2C(=O)N3[C@H](c4ccccc4Br)[C@@H](C)CC[C@H]3C(=O)N2[C@@H]1c1ccccc1Br	.	?	-29%	-8%	.	?	28%	-3.0%
Cc1ccc(Cn2nnc3c(=O)[nH]c(C4CCCN(C(=O)c5ccco5)C4)nc32)cc1 (stereo unspecified)	14%	0%[46.1 µM]	-9%	.	18%	25%[46.1 µM]	-1%	.
O=C(CCC(=O)N1CCOc2ccccc21)NC1CCCCCC1	7%	.	?	.	0%	.	-5%	.
CN(C)S(=O)(=O)c1ccc(NC(=O)c2cc(F)c(F)cc2Cl)cc1	-6%	-20%	-6%	10%	17%	-17%	-9%	-3.6%
N#CC(c1nc2ccccc2nc1N1CCOCC1)S(=O)(=O)c1ccccc1 (stereo unspecified)	?	4%	0%	.	14%	-10%[46.1 µM]	4%	.
CCN(CC)S(=O)(=O)c1ccc(-c2nnc(SC)o2)cc1	2%	5%	5%	4%	14%	6%	-16%	0.5%
CC1CCCCN1C(=O)CSc1nnc2c(n1)[nH]c1ccccc12 (stereo unspecified)	0%	?	1%	.	-11%	-25%[46.1 µM]	0%	.
C(=C\c1ccccc1)/CSc1nnc(-c2ccccc2)n1Cc1ccco1	-16%	-40%[14.3 µM]	-19%	1%	18%	?	-197%	-6.0%
CC(C)NC(=O)N(O)C1N(Cc2ccc3c(c2)OCO3)C(=S)SC1(C)C (stereo unspecified)	4%	1%	5%	7%	16%	1%[46.1 µM]	3%	-0.8%
Cc1ccccc1S(=O)(=O)Cc1ccc(C(=O)N2CC(C)CC(C)C2)o1 (stereo unspecified)	-25%	.	-6%	5%	6%	.	-90%	-2.5%
CS(=O)(=O)N1CCCC(C(=O)NCc2ccco2)C1 (stereo unspecified)	22%	2%	1%	-3%	-3%	24%	2%	3.4%
COc1cc(NC(=O)C2CCN(c3nc4ccccc4nc3C(F)(F)F)CC2)cc(OC)c1	0%	-23%[46.1 µM]	.	0%	.	.	.	-4.8%

The listing continues:
SMILES	StopGo reporter	LASV entry inh	SARS PLP yeast	Cruzain inh noDet	RE007 growth inh	Marburg entry inh	NS1 inh	Cruzain inh Det
O=C1c2cccc3cccc(c23)C(=O)N1Cc1ccco1	6%	-7%	0%	.	0%	2%[46.1 µM]	-4%	.
Cc1cccc(NC(=O)/C(C#N)=C/c2cn(CC(=O)NCc3ccco3)c3ccccc23)c1C	0%	-26%	4%	-27%	2%	-45%	21%	-0.3%
Cc1cc(-c2ccccc2)c2c(=O)n(-c3ccccc3)[nH]c2n1	-18%	.	16%	.	20%	.	25%	.
Cc1ccc(NC(=O)COc2ccc(-c3nn(C)c(=O)c4ccccc34)cc2)c(C)c1	?	-2%[46.1 µM]	.	6%	.	0%[46.1 µM]	.	-1.4%
COc1ccc(C(CCNCc2ccc(N(C)C)cc2)c2ccccc2)cc1 (stereo unspecified)	-22%	?	1%	.	11%	?	-4%	.
CCCc1cc(=O)oc2c(C)c(OCc3nn[nH]n3)ccc12	-7%	.	0%	.	-4%	.	-2%	.
O=C(CC1SC2=NCCN2C1=O)Nc1ccccc1 (stereo unspecified)	10%	-2%	-3%	-15%	-3%	4%	21%	2.9%
CCN1CCN(S(=O)(=O)c2ccc3c(c2)NC(=O)CS3)CC1	-2%	-9%[46.1 µM]	2%	.	-4%	14%[46.1 µM]	2%	.
O=C(N/N=C1\CCCc2ccccc21)c1ccc([N+](=O)[O-])cc1	50%[activator]	-4%	-10%	-26%	-16%	18%	-7%	-7.1%
CCc1ccc(C(=O)NC2CCCCC2)s1	67%[activator]	60%[14.3 µM]	1%	2%	3%	23%	-10%	-0.6%
COc1ccc(NC(=O)CCNC(=O)C2CCN(S(=O)(=O)c3ccc(F)cc3)CC2)cc1OC	-21%	.	-8%	.	0%	.	13%	.
O=C(NCCCO)c1cc2c([nH]c3ccccc32)c(-c2ccc(F)cc2)n1	?	?	1%	.	-9%	?	0%	.
Cc1cccc(NNC(=O)c2c(F)cccc2Cl)c1	38%[activator]	.	-2%	.	15%	.	3%	.
COc1ccc(CC(NC(C)=O)C(=O)N2CCN(C(=O)Nc3ccc(Cl)cc3)CC2)cc1OC (stereo unspecified)	3%	3%	5%	?	-7%	4%	-71%	-2.7%
Cc1c(Cl)cccc1NC(=O)CN(C1CCCCC1)S(C)(=O)=O	19%	.	-2%	.	-2%	.	11%	.
CCOc1ccccc1N(CC(=O)OC)S(C)(=O)=O	.	-6%	2%	6%	-13%	17%	-12%	-2.0%
O=C(NCCc1ccccc1C(F)(F)F)C1CCC(=O)N(CCCN2CCCC2=O)C1 (stereo unspecified)	1%	9%[46.1 µM]	1%	.	13%	3%[46.1 µM]	3%	.
CCOc1ccccc1-c1nc(Cn2c(=O)cc(C)c3c(C)nn(-c4ccccc4)c32)c(C)o1	-7%	-1%[46.1 µM]	.	-2%	.	.	.	-0.1%
COc1ccc(CN(CC(=O)NCC2CCCO2)C(=O)CNS(=O)(=O)c2ccc(C)cc2)cc1 (stereo unspecified)	-7%	1%	-7%	3%	3%	0%&0%	-10%	-0.7%
CC(C)OS(C)(=O)=O	-20%	.	0%	-3%	17%	.	.	1.4%
CCOc1cc(C(=O)N(CC)CC(=O)Nc2c(F)cccc2F)ccc1OCC(=O)N1CCCCC1	3%	1%	-1%	.	0%	17%	.	.
Cc1cc(NS(=O)(=O)c2ccc(NC(=O)c3ccco3)cc2)nc(C)n1	39%[activator]	-15%	8%	1%	2%	-1%	9%	5.7%
c1csc(CNc2ncnc3ccc(-c4ccoc4)cc23)c1	-29%&-4%	.	2%&-10%	-13%	.	.	.	-3.3%
Cc1[nH]c2c(C)cccc2c1CC(=O)O	-12%	0%	5%	.	8%	1%[46.1 µM]	.	.
O=C(Nc1ccc(Cl)c(Cl)c1)c1cccc(S(=O)(=O)NCc2cccnc2)c1	?	13µM*	-26%	2%	11%	?	-44%	-6.7%

The listing continues.
SMILES	StopGo reporter	LASV entry inh	SARS PLP yeast	Cruzain inh noDet	RE007 growth inh	Marburg entry inh	NS1 inh	Cruzain inh Det
O=C(CCSc1ccccc1)N1CCOCC1	22%	-7%	-5%	11%	-6%	-30%[46.1 µM]	0%	2.8%
CCOC(=O)CN1C(=O)C(=O)N(Cc2ccccc2F)C1=O	-6%	2%[46.1 µM]	15%	.	1%	5%[46.1 µM]	3%	.
Cc1ccccc1Cn1cc(CCC(=O)NC(C)c2ccccc2)c2ccccc21 (stereo unspecified)	-20%	-13%[46.1 µM]	.	-5%	.	.	.	-4.5%
COc1ccc(C(=O)NCCN2CCN(C(=O)c3ccc(OC)c(OC)c3)CC2)cc1OC	-6%	-2%	0%	.	9%	-1%[46.1 µM]	2%	.
O/N=C1\CC/C(=N\O)c2nn(-c3ccccc3Cl)nc21	.	3%	-8%	-6%	6%	?	-3%	0.5%
c1ccc(-c2cc3c(nn2)CCc2nonc2-3)cc1	7%	13%	9%	4%	-16%	-21%	-23%	6.3%
Cc1cc(C)c2c(NC(=O)c3ccccc3Cl)c(C(=O)NCc3ccc(Cl)cc3)sc2n1	-25%	?	.	-11%	.	?	.	-1.0%
COC(=O)c1ccc(Oc2ccc(C(F)(F)F)cn2)cc1	7%	5%[46.1 µM]	2%	.	15%	-25%[46.1 µM]	.	.
O=C1N=C2SCCN2/C1=C\c1ccccc1Cl	-5%	?	-21%	-4%	-7%	-6%	1%	-2.1%
CCOc1ccc(S(=O)(=O)N2CCCC(C(=O)N3CCN(c4ccccc4)CC3)C2)cc1 (stereo unspecified)	28µM*	?	?	.	-9%	?	5%	.
O=C(CN1C(=O)CSc2ccccc21)NCCC1=CCCCC1	-11%	.	-1%	-8%	-10%	2%	-19%	2.9%
O=[N+]([O-])c1ccc(Cc2cncc(O)c2)cc1	-13%	.	-1%	.	3%	.	-3%	.
Cc1cc(C)c2c(n1)SCC(=O)N2CC(=O)Nc1cccc(C)c1C	-14%	-3%[46.1 µM]	.	18%	.	-23%[46.1 µM]	.	-0.4%
CNS(=O)(=O)c1cc(Br)ccc1S(=O)c1ccccc1C(=O)O (stereo unspecified)	-2%	-19%[46.1 µM]	1%	.	22%	-1%[46.1 µM]	3%	.

Screening results deposited in PubChem by National Center for Advancing Translational Sciences (NCATS).
